Screening data deposited in PubChem by several laboratories.
Calb FLC: C. albicans growth modulation with fluconazole; 300,000 compounds, 0.57% hits; growth inhibition, % (concentration not given with the values); C. albicans CaCi-2 (fluconazole-resistant clinical isolate) + fluconazole, Alamar Blue growth, 48 h;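 active means most replicates above 75%; inconclusive means exactly half above 75%; inactive means most below 75%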;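 further: all wells also contain fluconazole at 8 µg/ml as a sub-toxic cotreatment; 0% = median of DMSO wells and 100% = median of geldanamycin control wells; wells of about 8 µL received 7.5 nL stock; the first replicate is given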
T cruzi inh: blocks replication of Trypanosoma cruzi; T. cruzi beta-gal in NIH3T3, luminescence, 90 h; inhibition, % (concentration not given with the values); 300,000 compounds, 1.4% hits; AID 1885;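 active means mean inhibition across valid replicates above about 55%, limit read from the data; inconclusive means mean below that limit but half or more replicates reach it; inactive means mean below it, under half of replicates reach it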;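 further: signal also drops with host cell toxicity which is not excluded here; 0% = plate median of DMSO wells and 100% = zero luminescence signal; higher percent means less beta-gal luminescence so fewer parasites; stock transfer was 50 nL into about 50 µL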
A1 inh: inhibitors of the anti-apoptotic protein A1, read as caspase activation; MEF A1-2A-BIM cells, Caspase-Glo 3/7 luminescence, 3 h; percent of clofoctol response, vehicle zero; 330,000 compounds, 0.066% hits; caspase activation, % (concentration not given with the values); AID 2462;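 active means over half of replicate activation scores above 10%, or exactly half above 10 with the replicate mean above 10; inconclusive means replicate mean below 10 yet half the replicates above 10; inactive means over half of replicates below 10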;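 further: wells of about 30 µL received 50 nL stock; many hits fall short of the cut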
UCH37 DUB inh: human UCH37 deubiquitinating enzyme inhibition | Q9Y5K5 | purified proteasome/UCH37, Ub-AMC cleavage fluorescence | inhibition, % (no concentration beside the values) | 330,000 compounds, 0.33% hits | AID 588478;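 active means mean of two replicates above 20%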;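 further: 0% = compound-free wells with enzyme and 100% = wells lacking proteasome; stock transfer was 100 nL into about 20 µL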
Target sequence (Q9Y5K5 whole entry, looked up): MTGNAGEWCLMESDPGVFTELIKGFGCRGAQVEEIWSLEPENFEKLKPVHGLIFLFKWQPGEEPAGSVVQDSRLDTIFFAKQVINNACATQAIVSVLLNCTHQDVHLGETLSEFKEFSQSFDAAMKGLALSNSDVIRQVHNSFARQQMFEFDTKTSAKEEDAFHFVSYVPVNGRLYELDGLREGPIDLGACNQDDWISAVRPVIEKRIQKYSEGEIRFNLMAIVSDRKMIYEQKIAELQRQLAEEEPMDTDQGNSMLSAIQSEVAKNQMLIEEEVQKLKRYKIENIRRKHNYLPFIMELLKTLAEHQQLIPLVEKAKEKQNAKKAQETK
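Material: human UCH37 enzyme supplied as purified proteasome complex / Amount: 0.15 nM proteasome as dispensed / Buffer or medium: pH 7.4 Tris-HCl (50 mM) with ovalbumin, ATP-MgCl2, DTT / Times: preincubation 30 min, reaction 25 min, room temperature / Technique: AMC fluorescence from Ub-AMC cleavage, excitation 355 nm, emission 460 nm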
RanGTP-Impb inh: inhibitors of RanGTP-importin-beta interaction, primary screen, biochemical, FRET, CFP-Ran, YFP-importin-beta, homogeneous. cell-free CFP-Ran/YFP-importin-beta FRET ratio. inhibition, % (test concentration not listed). 300,000 compounds, 1.1% hits;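 active means most replicates above 15%; inconclusive means exactly half above 15%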;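 further: 0% = DMSO wells and 100% = Ran loaded with GDP instead of GTP; wells of about 40 µL received 100 nL stock; the first replicate is given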
LANA-H2B inh: blocks KSHV LANA binding to histone H2A/H2B; cell-free LANA-H2A/H2B peptide, fluorescence polarization; Q9QR71; inhibition, % (concentration not given with the values); 320,000 compounds, 0.6% hits; in the data active means inhibition mostly above about 10%, no sharp cut-off; inactive means mostly below about 6.7%;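 further: stock transfer was 7.5 nL into about 10 µL; 0% = median of vehicle wells and 100% = median of positive control wells; one replicate is shown; the record names a cut of 25% in any replicate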
Beta2AR agonist: activates human beta-2 adrenergic receptor causing internalization; P07550; Am2.2-beta2AR cells, FAP receptor internalization, flow cytometry; reference of the scale not given here; response, % (no concentration beside the values); 340,000 compounds, 0.43% hits; AID 504454;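 active means response above a set limit, near 3 SD of response in nonfluorescent compounds, cut at about 42% in these data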;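 further: stock transfer was 100 nL into about 11 µL; a reference agonist was the positive control; negative values mostly stem from fluorescent compounds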
Target sequence (P07550 whole entry, looked up): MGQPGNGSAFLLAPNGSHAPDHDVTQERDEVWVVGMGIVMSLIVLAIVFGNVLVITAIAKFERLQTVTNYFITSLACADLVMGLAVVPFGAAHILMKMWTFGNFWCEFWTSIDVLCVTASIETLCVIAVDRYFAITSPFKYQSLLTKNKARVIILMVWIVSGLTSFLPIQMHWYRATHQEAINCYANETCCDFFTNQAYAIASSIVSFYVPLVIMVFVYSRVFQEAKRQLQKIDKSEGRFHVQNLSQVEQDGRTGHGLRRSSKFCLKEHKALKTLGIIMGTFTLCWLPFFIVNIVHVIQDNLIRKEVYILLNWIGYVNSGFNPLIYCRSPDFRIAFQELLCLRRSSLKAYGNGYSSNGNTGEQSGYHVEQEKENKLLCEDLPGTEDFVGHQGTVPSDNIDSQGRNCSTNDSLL
Beta cell apopt: beta cell apoptosis inhibition. INS-1E cytokine-induced death, ATP luminescence, 48 h; percent of positive-control rescue, neutral wells zero. protection from apoptosis, % (concentration not given with the values). 300,000 compounds, 0.8% hits. AID 435005;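 active means all replicates at 75% or more, or half of them and the mean; inconclusive means half reach 75% but not the mean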;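 further: 0% = cytokine-treated negative control wells and 100% = positive control rescue; higher means more ATP so stronger rescue from cytokine killing; wells of about 40 µL received 100 nL stock; the first replicate is given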
Active calls of the source: *; i = inactive; ? = inconclusive; . = no result given.

SMILES | Calb FLC | T cruzi inh | A1 inh | UCH37 DUB inh | RanGTP-Impb inh | LANA-H2B inh | Beta2AR agonist | Beta cell apopt
COc1cc(NS(=O)(=O)c2ccc(C)cc2)c2ncccc2c1 | ? | 78* | 0.1 | 2.3 | 1.6 | 1.6 | 31 | 45
CCOc1ccccc1-c1nc(C(N)=O)c2[nH]c(=O)n(-c3cccc(C)c3)c2n1 | 19 | -12 | 0.1 | -5.8 | 0.7 | 1.5 | -2 | -7
Cc1ccc2nc(SC(C)C(=O)NC3CCCC3)[nH]c2c1 (stereo not given) | . | . | -0.6 | 1.6 | . | 1.7 | 6 | -4
CCN1CCCc2cc(CN(CCN3CCOCC3)C(=S)Nc3cc(F)cc(F)c3)ccc21 | -6 | 41 | 0.0 | 2.1 | -2.2 | 1.3 | 8 | -2
O=C(CSc1nncn1-c1cccnc1)Nc1ccccc1C(F)(F)F | -1 | -2 | 0.7 | -1.9 | 0.8 | 15 | -12 | 1
Cc1ccc(Nc2ccc(C(=O)O)cc2[N+](=O)[O-])cc1 | 35 | 3 | -0.2 | 6.4 | -1.8 | 3.4 | 5 | -3
O=C(Nc1ccc2oc(=O)ccc2c1)c1ccc(-c2cccc([N+](=O)[O-])c2)o1 | -3 | 34 | 0.1 | . | ? | 2.9 | 16 | 9
Cc1cc(C)c(C)c(C(=O)c2ccccc2C(=O)O)c1C | 28 | -1 | 0.8 | 0.0 | 2.0 | 1.2 | -7 | -4
Cc1c(C(=O)Nc2cccc(-c3nnc4n3CCCCC4)c2)oc2ccccc12 | -3 | 14 | 0.0 | 4.3 | 0.0 | -7.9 | 1 | 15
CCOC(=O)C(=CNc1cccc(C)n1)C(=O)OCC | 8 | 2 | -2.0 | 3.1 | 2.6 | -4.0 | -1 | -16
CC1(C)Cc2cccc(OCC(=O)OCc3nnc(-c4ccc([N+](=O)[O-])cc4)o3)c2O1 | . | . | -0.8 | 2.8 | . | 1.7 | 19 | -5
CC(C)(C)OC(=O)NC1CNNC1=O (stereo not given) | . | . | 0.0 | -1.0 | . | 2.8 | -8 | -3
Cn1cc(CNCc2ccc(OC(F)(F)F)cc2)c(-c2ccc3c(c2)OCCO3)n1 | -44 | -6 | -0.7 | 3.0 | -5.3 | -4.3 | 3 | 142*
CCCCC(=O)Nc1ccccc1C(=O)OCC(=O)c1ccc2c(c1)OCCO2 | -6 | 8 | 0.0 | 3.0 | 7.6 | -0.4 | 3 | 1
CC1=Nn2c(nnc2-c2ccccc2)SC1 | 2 | 0 | -0.2 | 4.2 | -0.6 | -1.3 | 9 | -3

Looked up above:
CC(C)(C)OC(=O)NC1CNNC1=O (stereo not given) in Beta cell apopt is entered as -3
CC1=Nn2c(nnc2-c2ccccc2)SC1 in RanGTP-Impb inh is entered as -0.6
Cc1ccc2nc(SC(C)C(=O)NC3CCCC3)[nH]c2c1 (stereo not given) in UCH37 DUB inh is entered as 1.6
CCCCC(=O)Nc1ccccc1C(=O)OCC(=O)c1ccc2c(c1)OCCO2 in T cruzi inh is entered as 8
O=C(CSc1nncn1-c1cccnc1)Nc1ccccc1C(F)(F)F in UCH37 DUB inh is entered as -1.9

Remaining list, next part:
SMILES | Calb FLC | T cruzi inh | A1 inh | UCH37 DUB inh | RanGTP-Impb inh | LANA-H2B inh | Beta2AR agonist | Beta cell apopt
N#Cc1nc(-c2cccc3ccccc23)oc1NCC1CCCO1 (stereo not given) | -3 | 15 | 0.2 | i | 2.8 | 2.7 | 1 | -2
CC(C)NC(=O)c1ccccc1NC(=O)c1ccccc1N(C)S(C)(=O)=O | 5 | 3 | -1.0 | 1.1 | 4.7 | -1.8 | 2 | -6
CCOC(=O)CNc1c(-c2ccc(O)cc2)nc2ccc(Cl)cn12 | -2 | 2 | -1.1 | -88 | 5.1 | -3.7 | 15 | 1
CC12CCC(c3c(C(=O)N4CCOCC4)nn(-c4ccccc4)c31)C2(C)C (stereo not given) | 11 | 0 | 0.5 | 4.4 | -1.8 | -0.2 | -4 | 0
Cc1cc(=O)[nH]c(Nc2ccc(Cl)cc2)n1 | 3 | -17 | 0.4 | 5.0 | -3.8 | 2.1 | -7 | -3
O=C1NC(CCc2ccccc2)C(=O)N1Cc1cccc2ccccc12 (stereo not given) | 3 | 17 | -0.6 | -25 | -0.9 | 0.1 | -2 | 12
COc1ccc(/C=N/NC(=O)c2ccccc2NC(=O)c2ccco2)c(OC)c1 | 1 | 5 | 0.3 | . | -2.2 | 4.6 | 12 | .
CC(CC(=O)N1CCN(c2ccccc2)CC1)S(=O)(=O)c1ccc2c(c1)NC(=O)CO2 (stereo not given) | -5 | 15 | 0.0 | 2.4 | 1.4 | 4.5 | 7 | 0
CN(C)CCNC(=O)Nc1ccc(F)cc1F | -13 | -8 | -0.6 | 4.6 | -2.4 | 5.9 | -4 | -2
CC(=O)Nc1ccc(/C=C/c2nc3ccccc3[nH]c2=O)cc1 | -3 | 2 | 0.3 | -8.6 | -17 | 5.4 | 27 | 4
Cc1cc(/C=C2/NC(=O)NC2=O)c(C)n1-c1ccc(C#N)cc1 | 2 | -1 | -0.1 | -1.1 | -2.5 | 11 | 5 | 0
Cc1ccc(C)c(OCCC(=O)OCC(=O)NC2CCCC2)c1 | 1 | -9 | -0.6 | -2.2 | -0.4 | -4.6 | 2 | -3
COc1ccc(CC(=O)NNc2ncnc3c2cnn3-c2ccc(C)cc2)cc1 | 2 | 3 | 1.2 | 2.2 | -3.9 | 11 | 20 | 6
O=C(c1cccc(-c2nnc(-c3ccccc3)o2)c1)N1CCCCC1 | -3 | 4 | 1.1 | 5.1 | 5.6 | 4.0 | -1 | 0
CSc1cccc(NC(=O)COC(=O)C2CCN(S(=O)(=O)c3ccccc3)CC2)c1 | . | . | 0.1 | 0.2 | . | 4.7 | -8 | -3

The list goes on; the last 2 above are carried over.
SMILES | Calb FLC | T cruzi inh | A1 inh | UCH37 DUB inh | RanGTP-Impb inh | LANA-H2B inh | Beta2AR agonist | Beta cell apopt
O=C(c1cccc(-c2nnc(-c3ccccc3)o2)c1)N1CCCCC1 | -3 | 4 | 1.1 | 5.1 | 5.6 | 4.0 | -1 | 0
CSc1cccc(NC(=O)COC(=O)C2CCN(S(=O)(=O)c3ccccc3)CC2)c1 | . | . | 0.1 | 0.2 | . | 4.7 | -8 | -3
CCOc1ccc(S(=O)(=O)Nc2cccc(C(=O)NCCCn3ccnc3)c2)cc1 | . | . | -0.2 | . | . | -7.5 | -6 | 6
C[C@H](CO)N1C[C@H](C)[C@@H](CN(C)C)Oc2c(NS(=O)(=O)c3ccccc3)cccc2C1=O | . | . | -0.3 | -0.4 | . | -3.0 | 2 | 2
COc1ccc(NC(=O)CSc2n[nH]c(-c3ccco3)n2)cc1 | 0 | -1 | 0.4 | 0.9 | -1.2 | -5.5 | -118 | 1
CN(C)Cc1ccccc1CCc1ccccc1 | -11 | 3 | 0.1 | 3.7 | 1.5 | -0.2 | -5 | 0
COc1cccc(C(=O)NCC(=O)N/N=C(C)\C=C\c2ccccc2)c1 | -17 | 6 | -0.3 | . | -6.2 | 3.6 | -4 | .
C=CCOc1ccc(CNCc2cccnc2)cc1 | 2 | -10 | -0.5 | 3.5 | 7.3 | -1.5 | -6 | -4
CN(C)S(=O)(=O)c1ccc(C(=O)NCC2CC2(Cl)Cl)cc1 (stereo not given) | -6 | -9 | 2.1 | 5.3 | 0.2 | 2.4 | -5 | .
CCc1ccccc1NC(=O)c1cnn(-c2ccccc2)c1C | -11 | 4 | 0.6 | 1.5 | 0.8 | -0.3 | 3 | 0
COCCCNC(=O)C1CCN(c2nc(C)cc(C)n2)CC1 | 38 | -1 | 1.4 | -2.0 | -2.2 | 2.9 | -2 | 2
NC(=O)c1cc([N+](=O)[O-])ccc1NCc1cccnc1 | 3 | 5 | 0.2 | . | 3.2 | 1.9 | -5 | -7
N#CC1(NC(=O)COC(=O)c2ccccc2[N+](=O)[O-])CCCCC1 | -9 | -5 | -1.4 | 2.9 | 1.6 | -3.7 | -6 | -3
O=C(CN1CCN(C(=O)c2cccs2)CC1)Nc1ccc(Br)cc1 | 5 | -9 | -1.1 | 1.5 | -2.0 | 1.8 | 0 | 1
Cc1c(OCc2ccccc2)cccc1OCc1ccccc1 | 3 | 10 | 2.2 | 4.4 | -3.8 | -12 | -2 | 1
COc1cc(NC(=O)CSc2nc3c(c(=O)n(C)c(=O)n3C)n2C)cc(OC)c1 | -2 | 0 | 0.3 | 1.1 | -2.3 | 1.7 | 5 | 3
CCCN(CC(=O)Nc1ccc(Cl)cc1Cl)C(=O)/C=C/c1cccc([N+](=O)[O-])c1 | -44 | 14 | ? | 4.2 | -3.3 | -4.3 | -6 | -8
O=C(Nc1ccc(Cl)cc1C(F)(F)F)C(Sc1nnc(-c2cccs2)o1)c1ccccc1 (stereo not given) | 7 | -7 | -4.6 | -0.3 | 2.1 | -1.1 | 1 | -12
CCNC(=O)C1CC(=O)N(Cc2ccc3c(c2)OCO3)C(=Nc2ccc(OCC)cc2)S1 (stereo not given) | 5 | -10 | 0.8 | 6.6 | -1.2 | 63* | -6 | 2
CCOc1ccc2ccccc2c1C(=O)N1CCN(c2ccccc2)CC1 | -8 | -32 | 0.9 | 0.3 | -1.1 | 3.6 | -16 | -5
CCCC(C)NC(=O)CSc1nnc(-c2c[nH]c3ccccc23)o1 (stereo not given) | 17 | 15 | -0.1 | -1.0 | 1.1 | 1.5 | -8 | -2
COC(=O)N1C(=O)[C@](c2ccc(OC)cc2)(C(C)C)N1C(=O)OC | -22 | -1 | 0.4 | 4.7 | 0.6 | 6.9 | -2 | 1
COc1ccc(CCNc2ccc(N3C(=O)CC(C)C3=O)cc2[N+](=O)[O-])cc1OC (stereo not given) | -2 | 0 | -0.9 | 8.7 | -4.6 | -2.5 | -5 | 4
O=C(NCCN1CCN(c2ccccc2)CC1)C1CCN(S(=O)(=O)c2cccc3nonc23)CC1 | 1 | 22 | 0.1 | 0.9 | -4.0 | 1.4 | -20 | -4
Cc1ccc(S(=O)(=O)N(Cc2ccccc2)Cc2ccco2)cc1 | 0 | 34 | 0.8 | 1.2 | -1.3 | -5.2 | -4 | 7
Cc1ccc(/C(N)=N/OC(=O)Cc2cccc3ccccc23)cc1 | -34 | 25 | 0.1 | 5.6 | -0.5 | -1.3 | 8 | 0
Cc1ccc(-c2nc(C(=O)NCC3CCCO3)cc3c2[nH]c2ccccc23)cc1 (stereo not given) | 0 | 53 | 0.7 | -15 | 2.7 | 6.3 | 0 | 49
COc1ccc(C(=O)/C=C/c2ccc(N3CCCCC3)c([N+](=O)[O-])c2)c(OC)c1 | 2 | 4 | 0.5 | 3.7 | -0.5 | 11 | 2 | -3
Cc1cc(N2CCCC2=O)c(N)cc1N | 6 | -17 | -0.8 | -0.5 | 2.3 | 0.5 | 12 | 2
COC(=O)c1cc(=O)n(Cc2ccc(F)cc2)c(=Nc2ccccc2)s1 | 0 | 32 | 0.4 | 4.2 | -0.3 | -0.3 | 25 | 4
